# Compound activity from PubChem BioAssay.
# Beta2AR agonist: activates human beta-2 adrenergic receptor causing internalization; P07550; response, % (no concentration beside the values); 340,000 compounds, 0.43% hits; Am2.2-beta2AR cells, FAP receptor internalization, flow cytometry; reference of the scale not given here;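 active means response above a set limit, near 3 SD of response in nonfluorescent compounds, cut at about 42% in these data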;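 further: stock transfer was 100 nL into about 11 µL; a reference agonist was the positive control; negative values mostly stem from fluorescent compounds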
# Target sequence (P07550 whole entry, looked up): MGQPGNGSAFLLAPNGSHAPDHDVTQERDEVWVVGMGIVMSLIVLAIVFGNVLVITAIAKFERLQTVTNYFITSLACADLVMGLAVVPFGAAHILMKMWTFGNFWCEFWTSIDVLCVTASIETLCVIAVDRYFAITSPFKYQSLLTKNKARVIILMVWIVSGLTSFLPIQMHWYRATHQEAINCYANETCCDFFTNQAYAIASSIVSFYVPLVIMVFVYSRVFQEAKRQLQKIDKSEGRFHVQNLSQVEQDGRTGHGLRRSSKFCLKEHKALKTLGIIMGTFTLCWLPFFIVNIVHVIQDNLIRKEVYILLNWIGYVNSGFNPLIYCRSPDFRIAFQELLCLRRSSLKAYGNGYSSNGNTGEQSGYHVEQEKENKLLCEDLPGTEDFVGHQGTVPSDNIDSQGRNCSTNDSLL
# Calb FLC: affects C. albicans growth with fluconazole. C. albicans CaCi-2 (fluconazole-resistant clinical isolate) + fluconazole, Alamar Blue growth, 48 h. 300,000 compounds, 0.57% hits. growth inhibition, % (test concentration not listed);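 active means most replicates above 75%; inconclusive means exactly half above 75%; inactive means most below 75%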;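 further: all wells also contain fluconazole at 8 µg/ml as a sub-toxic cotreatment; 0% = median of DMSO wells and 100% = median of geldanamycin control wells; wells of about 8 µL received 7.5 nL stock; the first replicate is given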
# Vif A3G: HIV-1 Vif–A3G interaction blockers – biochemical, TR-FRET, GST-Vif 1-94, biotin-A3G peptide, dose response retest, primary screen (AID 1117319) | TR-FRET GST-Vif / biotin-A3G peptide binding; higher % means a stronger effect; test concentration not given here; strong numbers were not always called active | inhibition, %, or IC50 in µM where a hit was titrated | 260,000 compounds, 0.57% hits;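 active means above the screen mean plus three standard deviations and confirmed in dose response; inconclusive means results disagree or hit not tested in dose response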;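 further: Vif residues 1-94 fused to GST binding biotinylated APOBEC3G peptide 110-148; 0% = full assay without inhibitor and 100% = GST in place of GST-Vif; retest series ran down from 100 µM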
# HNF4A DNA FP: change in binding of human HNF4 alpha to DNA; AID 1224865; 360,000 compounds, 0.3% hits; HNF4a-FITC DNA binding, fluorescence polarization, 1 h; P41235; activity change, % at 10 µM; in the data active means activity change above about 30%, passing the limit was not always enough;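 further: controls were the assay level and a saturating level of protein; the project sought stronger binding though the title names inhibitors; some compounds called inactive have numbers as strong as hits; positive values seem to mean higher polarization but the record does not say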
# Target sequence (P41235 whole entry, looked up): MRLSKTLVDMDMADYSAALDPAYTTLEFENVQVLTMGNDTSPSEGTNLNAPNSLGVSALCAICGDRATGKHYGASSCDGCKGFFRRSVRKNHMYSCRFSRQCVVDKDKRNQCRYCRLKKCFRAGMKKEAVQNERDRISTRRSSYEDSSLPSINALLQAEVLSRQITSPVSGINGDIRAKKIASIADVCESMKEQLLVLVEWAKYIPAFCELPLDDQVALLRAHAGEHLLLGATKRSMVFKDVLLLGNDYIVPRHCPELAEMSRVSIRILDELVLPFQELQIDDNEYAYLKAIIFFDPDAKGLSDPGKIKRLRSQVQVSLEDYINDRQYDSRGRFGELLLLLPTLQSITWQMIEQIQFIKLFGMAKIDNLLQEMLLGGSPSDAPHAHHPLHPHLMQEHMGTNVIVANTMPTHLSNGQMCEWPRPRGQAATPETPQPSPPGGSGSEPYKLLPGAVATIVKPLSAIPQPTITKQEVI
# ALR inh: human ALR oxidase inhibition via reduced H2O2 | 290,000 compounds, 3.8% hits | P55789 | inhibition, % (no concentration beside the values) | purified ALR, DTT oxidation, H2O2 HRP-luminol luminescence;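 active means mean and each replicate at 75% or more; inconclusive means only one of the two met; inactive means neither met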;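 further: stock transfer was 7.5 nL into about 7.5 µL; 0% = neutral wells and 100% = wells with inactivated enzyme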
# Target sequence (P55789 whole entry, looked up): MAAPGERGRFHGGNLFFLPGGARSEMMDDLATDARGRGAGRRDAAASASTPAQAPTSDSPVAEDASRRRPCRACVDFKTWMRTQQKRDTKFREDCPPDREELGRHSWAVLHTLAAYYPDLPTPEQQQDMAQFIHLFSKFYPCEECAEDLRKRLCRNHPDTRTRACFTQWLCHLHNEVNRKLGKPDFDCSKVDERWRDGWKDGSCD
# LANA-H2A inh: blocks KSHV LANA binding to histone H2A/H2B | 320,000 compounds, 0.6% hits | AID 2629 | cell-free LANA-H2A/H2B peptide, fluorescence polarization | Q9QR71 | inhibition, % (test concentration not listed); in the data active means inhibition mostly above about 10%, no sharp cut-off; inactive means mostly below about 6.7%;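 further: stock transfer was 7.5 nL into about 10 µL; 0% = median of vehicle wells and 100% = median of positive control wells; one replicate is shown; the record names a cut of 25% in any replicate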
# RanGTP-Impb inh: inhibitors of RanGTP-importin-beta interaction, primary screen, biochemical, FRET, CFP-Ran, YFP-importin-beta, homogeneous; inhibition, % (test concentration not listed); cell-free CFP-Ran/YFP-importin-beta FRET ratio; 300,000 compounds, 1.1% hits;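 active means most replicates above 15%; inconclusive means exactly half above 15%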;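 further: 0% = DMSO wells and 100% = Ran loaded with GDP instead of GTP; wells of about 40 µL received 100 nL stock; the first replicate is given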
# * = called active by the depositor; ? = inconclusive; . = no result given; & = joins results of further samples.
# The line under a structure holds: Beta2AR agonist	Calb FLC	Vif A3G	HNF4A DNA FP	ALR inh	LANA-H2A inh	RanGTP-Impb inh
Cc1nn(-c2ccccc2)c2c1C(=O)N(c1ccccc1)C(=O)C(C)(C)C2
 : -2	2	-4%	-0.3	.	.	9.0
COc1ccc(CN(CCN2CCOCC2)C(=O)c2c(F)cccc2F)cc1OC
 : 3	-15	3%	0.8	.	-1.4	1.0
CC(=O)Nc1ccc(-c2csc(NC(=O)C3CC(=O)N(c4ccc5c(c4)OCCO5)C3)n2)cc1 (stereo not given)
 : 2	14	-3%	-5.1	-6	3.7	-3.8
N#Cc1ccncc1S(=O)c1ccc(Cl)cc1 (stereo not given)
 : -3	4	5%	2.1	1	-12	-1.0
CN(CC(=O)Nc1ccc(F)cc1)C(=O)COC(=O)/C=C/c1ccc(OC(F)F)cc1
 : -6	-5	-7%	-0.8	-3	-6.0	12
Cc1ccccc1NC(=S)N(CCN(C)C)C(C)c1cccnc1 (stereo not given)
 : -5	-35	9%	-2.5	.	-2.9	?
O=C(NCc1cccs1)C1CCN(S(=O)(=O)c2cccc3cccnc23)CC1
 : -7	-7	-53%	-5.0	95*	-0.6	1.9
O=C(NCCCn1cccn1)c1cc(COc2ccc(F)cc2Cl)on1
 : -2	-13	-5%	0.9	-2	3.2	-2.2
CCOC(=O)c1ccccc1NC(=O)COC(=O)C(CCSC)NC(=O)COc1ccccc1 (stereo not given)
 : 4	-7	0%	0.8	-2	-1.3	24*
COc1ccc(CCNC(=O)COc2ncnc3cc([N+](=O)[O-])ccc23)cc1
 : 14	-1	.	-0.1	-34	-6.4	-0.4
CCCCn1c(N)c(N(Cc2ccccc2OC)C(=O)c2ccc(N3CCCC3=O)cc2)c(=O)[nH]c1=O
 : -5	-4	4%	-2.6	-1	0.8	.
CCC(C)[C@H](NC(=O)C1CCN(C(=O)[C@H](Cc2ccccc2)NS(=O)(=O)c2ccc(C)cc2)CC1)C(=O)O (stereo not given in full)
 : -3	0	.	3.0	7	1.9	3.6
C[C@H](NC(=O)c1nc[nH]c1C(=O)N[C@@H](C)c1ccccc1)C(=O)OC(C)(C)C
 : 11	0	.	1.6	.	-7.4	-0.4
CC1=NN(Cc2ccccc2)C(=O)C1C(c1ccccc1)C(C#N)C#N (stereo not given)
 : 40	-9	10%	6.6	98*	-0.8	-2.4
CCOC(=O)N1CCN(C(=O)c2ccc(CNS(=O)(=O)c3ccc(C)cc3)cc2)CC1
 : 1	5	0%	1.1	-2	0.7	1.9
O=C(O)c1cccc(S(=O)(=O)Nc2ccc(N3CCCCC3)cc2)c1
 : 2	.	3%	3.5	99*	-1.0	.
Cc1ccc(S(=O)(=O)N(CC(=O)N/N=C\c2cccs2)c2cccc3cccnc23)cc1
 : -12	1	0%	-1.1	.	0.5	-0.5
Cc1n[nH]c(C)c1N=Nc1ccc(Br)cc1
 : 4	?	.	0.1	-4	-8.8	-2.4
C=C1C[C@H]2[C@@H]3CCc4cc(OC)ccc4[C@H]3CC[C@]12C
 : 31	-5	.	-3.9	-2	1.0	2.0
CC(C)(C)c1ccc(OCc2nnc(SCC(N)=O)n2N)cc1
 : 2	17	-11%	-0.3	-2	-3.5	-1.5
CN1CCCN(Cc2ccccc2C(F)(F)F)CC1
 : -3	7	-2%	-2.1	-3	2.8	5.2
CCOc1ccccc1C(=O)N1CCN(c2cccc(Cl)c2)CC1
 : 18	-10	-3%&-3%	-0.2	4	0.2	2.9
O=C(NCc1ccccc1Cl)NCc1ccccc1Cl
 : 15	3	?	2.5	-1	-0.2	6.8
O=C(COc1ncnc2ccccc12)Nc1cccc([N+](=O)[O-])c1
 : 11	4	.	-3.2	-3	0.4	2.9
COc1ccc(OC)c(-c2cc(C(=O)Nc3cc(C)n(Cc4ccc(Cl)cc4)n3)no2)c1
 : 6	1	3%	0.3	2	-0.3	2.9
CCN(CC)C(=O)Cn1cc(C(=O)C(=O)N2CCCc3ccccc32)c2ccccc21
 : 3	2	15%	0.7	-11	3.5	.
COc1ccc(-c2ccc(C#N)c(OC(=O)c3c(Cl)cccc3Cl)n2)cc1
 : 0	-4	23%	1.0	3	6.3	-0.2
O=C(c1ccc(F)cc1)N1CCC(C(=O)N2CCN(c3ncccn3)CC2)CC1
 : -4	.	-5%	3.5	-2	1.6	.
c1ccc2c(SCc3cn4ccccc4n3)nncc2c1
 : -10	-9	-5%	-1.2	99*	-2.0	4.4
CN(C)CCN(C)Cc1c2ccccc2c(CN(C)CCN(C)C)c2ccccc12
 : 29	2	2%	-73	-9	6.6	-43
O=C(COC(=O)c1cc(=O)[nH]c(=O)[nH]1)Nc1cccc(S(=O)(=O)N2CCOCC2)c1
 : -5	-3	-4%	-0.7	0	5.1	-2.6
O=C(Nc1cccc2c1CCCC2)c1ccccc1Cl
 : -4	6	.	-0.5	-3	-2.3	0.3
Cc1c(NC(=O)C(C)OC(=O)c2c3c(nc4ccccc24)CCC(C)C3)c(=O)n(-c2ccccc2)n1C (stereo not given)
 : 4	?	.	-0.7	18	2.8	-0.4
O=C(/C=C/c1ccccc1)NCCCNC(=O)/C=C/c1ccccc1
 : -1	-1	.	-2.3	-2	-1.4	-0.7
NC(N)=NS(=O)(=O)c1ccc(NC(=S)NC(=O)/C=C/c2ccc(F)cc2)cc1
 : 7	12	.	1.2	3	-5.9	10.0
COc1ccc(/C=C/C(=O)N/C(=C\c2ccco2)C(=O)NCCc2nc3ccccc3[nH]2)cc1
 : -2	40	.	3.1	.	-4.7	-2.6
Cc1cc(C)c(C(=O)/C=C/c2ccc3c(c2)OCO3)c(=O)[nH]1
 : 1	-1	-3%	2.4	-26	-1.0	0.4
Cc1ccc(-c2csc3ncnc(SCc4ccc(C(=O)O)cc4)c23)cc1
 : 7	16	6%	0.8	17	5.6	0.1
CC1(C)CC(=O)C(C=NCCCn2ccnc2)=C(O)C1
 : 4	0	-4%	3.7	-7	1.1	-1.3
O=C(CNC(=O)c1cccs1)OCC(=O)c1ccc(Cl)cc1
 : -1	-11	-11%	1.1	-9	-1.4	0.9
CC(C)CN(CC(C)C)C(=O)Cc1coc2ccc3ccccc3c12
 : 3	7	14%	-4.2	-17	3.4	7.3
CCCN1CCC(=O)N([C@H](CSc2ccc(OC)cc2)c2ccccc2)CC1
 : -6	-8	.	-0.9	98*	-4.2	4.5
COc1ccc(OC)c(CN2CCC(N3CCC(C(=O)NC4CC4)CC3)CC2)c1
 : 0	-2	-8%	4.1	-8	0.6	2.1
COc1ccc(C(=O)O/N=C(\N)Cc2ccc([N+](=O)[O-])cc2)c(OC)c1
 : -5	-7	-2%	6.9	.	-1.0	-7.5
CCOC(=O)N/N=C(\c1ccccc1)C(O)c1ccccc1 (stereo not given)
 : -5	4	10%	-27	22	1.3	1.6
Nc1ccc(C(=O)NC23CC4CC(CC(C4)C2)C3)cc1
 : 4	-34	.	-4.7	8	1.3	0.5
O=C(NCc1ccncc1)c1cc(-c2ccc(Cl)cc2)oc1C(F)(F)F
 : -2	-3	25%	2.6	.	1.4	?
Cc1ccc(Cl)cc1N1CCN(Cc2nc3c(c(=O)[nH]c(=O)n3C)n2CCc2ccccc2)CC1
 : 6	-14	11%	1.9	-2	-0.5	3.3
CNC(=O)NC(=O)COC(=O)CCc1nc(=O)c2ccccc2n1C
 : -14	-9	3%	-1.0	-1	-4.3	-2.7
Cc1ccc2c(NC(=O)c3ccc(Br)o3)cccc2n1
 : -1	4	6%	0.9	-14	-1.0	?
CN1CCN(S(=O)(=O)c2ccc(Cl)c(C(F)(F)F)c2)CC1
 : -4	.	-2%	1.7	.	.	.
O=C(Nc1ccccc1)c1cc(Cl)nc2ccccc12
 : -2	-11	.	0.1	-3	-2.0	0.3
CCN(C[C@H]1N[C@@](C)(C(=O)OC)[C@H]2C(=O)N(Cc3ccccc3)C(=O)[C@@H]12)C(=O)Nc1ccccc1
 : -5	.	8%	3.6	.	.	.
COc1ccc(CNC(=O)Nc2ccccc2)cc1
 : -3	0	.	-0.1	1	-1.9	0.2
Cc1cccc(-n2nc(C)c3c(C(=O)O)cc(-c4cccs4)nc32)c1
 : 3	32	.	0.7	8	-2.1	4.8
Cc1ccc(NC(=O)CSc2nnc(Cc3cccn3C)n2-c2ccc(F)cc2)c(C)c1
 : -1	9	2%	-2.5	4	-2.8	3.4
COCCCNC(=S)N1CCN(C(=O)C(=O)Nc2ccc(C(=O)OC)cc2)CC1
 : -1	-14	-2%	4.1	.	4.9	9.8
N#C/C(=C\Nc1ccc2cn[nH]c2c1)c1nc(-c2ccccc2)cs1
 : 3	-9	?	13	.	.	3.0
O=C(C1CCCN(Cc2ccccc2F)C1)N1CCCCC1 (stereo not given)
 : -1	9	-1%	5.5	-3	-7.2	-2.6
CCOc1ccccc1NC(=O)C1CCN(S(C)(=O)=O)CC1
 : 3	-6	25%	0.7	-5	-0.7	?

# Later entries.
# The line under a structure holds: Beta2AR agonist	Calb FLC	Vif A3G	HNF4A DNA FP	ALR inh	LANA-H2A inh	RanGTP-Impb inh
C=CCSc1ccsc1C(=O)O
 : -14	14	-2%	2.1	-14	1.1	4.1
COC(=O)C1CN(S(=O)(=O)c2cc(OC)ccc2OC)CCS1 (stereo not given)
 : 5	5	.	1.8	-5	-4.2	-3.6
Cc1ccc(S(=O)(=O)CCC(=O)OCC(=O)N2c3ccccc3CC2C)cc1 (stereo not given)
 : -4	3	-3%	-1.3	0	3.1	4.2
O=C(Cc1ccc(F)cc1)Nc1nc(-c2ccc(F)c(F)c2)cs1
 : 15	-34	.	-0.1	31	-17	3.7
O=C(NCc1cccs1)C1CCCCC1
 : 13	-3	0%	-2.1	-8	-0.6	-1.6
Cc1ccc(NC(=O)CSc2nc3c(c(=O)n(C)c(=O)n3C)n2C)cc1
 : 2	-1	-3%	-2.8	-5	0.3	-0.9
O=C(C[n+]1ccccc1)N/N=C/c1ccc(Cl)c(Cl)c1
 : 4	4	.	-1.5	-7	-1.4	-0.7
CCOc1ccccc1OCC(=O)OCC(=O)NNC(=O)c1ccc([N+](=O)[O-])cc1
 : -4	-2	.	5.4	-1	-3.6	4.4
CS(=O)(=O)c1ccc(C(=O)Nc2ccc(N3CCCC3)cc2)c(Cl)c1
 : -8	-7	-9%	0.1	53	4.5	-1.1
CC1CCCN(C(=O)C2CCN(CC3CC=CCC3)CC2)C1 (stereo not given)
 : -2	-6	9%	2.3	0	4.7	0.4
COc1cccc(N2CCC(N3CCN(C)C(CCO)C3)CC2)c1 (stereo not given)
 : 2	-7	.	-1.4	94*	-1.0	0.3
COC(=O)c1ccc(NC(=O)CN2C(=O)CC(C)S(=O)(=O)c3ccccc32)cc1 (stereo not given)
 : 4	4	-7%	-1.8	0	-0.1	-2.3
Cc1cc2oc(=O)cc(C)c2c(=O)o1
 : 1	-7	73%	2.9	-1	-6.6	1.7
O=C(Nc1ccc(Cl)cn1)c1cccc(OCc2ccccc2)c1
 : -16	11	4%	-1.4	-19	2.0	-1.8
N#Cc1ccc(OCC(=O)NCCCn2ccnc2)cc1
 : 2	.	-4%	-1.6	-3	5.0	.
Cc1ccccc1OCc1n[nH]c(=S)n1-c1ccccc1
 : -3	26	.	-4.8	1	1.7	1.4
CCOc1ccc(C(F)(F)F)cc1NC(C)=O
 : 0	16	4%	2.9	-12	-1.1	1.6
CSc1nc2ccc(NS(=O)(=O)c3ccc(CNC(C)=O)cc3)cc2s1
 : 4	.	.	-1.7	-33	2.0	.
CC1(C)COC(c2ccccc2Cl)OC1
 : -5	.	-5%	-1.2	.	.	.
CC(C)CN(C(=O)C1CCCC1)C1CCS(=O)(=O)C1 (stereo not given)
 : 11	-3	-3%	-1.1	.	.	-3.6
O=C(NC1CCOCC1)C1CCC(=O)N(Cc2cccc(C(F)(F)F)c2)C1 (stereo not given)
 : 5	38	4%	-1.4	-5	-4.6	2.9
